# Rce1 inhib – yeast Rce1p protease inhibitors, primary screen, biochemical, fluorescence, cell-free homogeneous | yeast membranes, quenched prenylated peptide cleavage fluorescence | calls only | hit rate 0.27% among 290,000;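 active means fall in fluorescence gain of 50% or more versus controls, with final raw signal at or below 3038400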;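 further: plate controls were neutral control wells for no effect and wells lacking membranes for full effect; tested at 10 µM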
# Target sequence (Q03530 whole entry, looked up): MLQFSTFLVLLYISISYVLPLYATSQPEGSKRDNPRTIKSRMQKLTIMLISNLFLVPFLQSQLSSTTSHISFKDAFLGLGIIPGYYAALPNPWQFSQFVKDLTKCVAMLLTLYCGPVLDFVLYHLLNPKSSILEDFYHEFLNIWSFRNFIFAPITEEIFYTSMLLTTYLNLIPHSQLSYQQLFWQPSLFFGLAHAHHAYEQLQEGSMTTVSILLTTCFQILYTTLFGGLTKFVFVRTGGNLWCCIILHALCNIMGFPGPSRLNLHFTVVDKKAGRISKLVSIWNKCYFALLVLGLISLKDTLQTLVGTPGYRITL
# Yeast UUG start – modulators of yeast start codon fidelity, primary screen, whole organism, S. cerevisiae, single point, plate reader; AID 602363, 2012; hit rate 0.13% among 350,000; S. cerevisiae UUG-firefly luciferase reporter, luminescence/redox ratio; activity score, % at 18.7 µM;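 active means replicate mean at a twofold rise or more, about +100% in these data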;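 further: firefly luciferase made from a UUG start codon reports start codon fidelity; reporter light over untreated wells divided by growth signal over untreated wells; some hits fall short of that in this replicate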
# eIF4H FP inh – human eIF4H binding inhibitors, primary screen, translation initiation inhibitor project, biochemical, uHTS, fluorescence polarization; Eukaryotic translation initiation factor 4H (Homo sapiens), Q15056; eIF4H fluorescence polarization binding assay; inhibition, % at 35 µM; hit rate 0.94% among 290,000; AID 2012, 2009;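 active means 50% or more with normal probe brightness, or confirmed in later tests; about a fifth of its hits are not listed in these tables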;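 further: calls also rest on retests at 20 µM and on dose response follow-up; 0% = protein and probe with vehicle and 100% = probe without protein; strong numbers were not always called active; many hits fall short of the cut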
# Env fusion inh – inhibitors of HIV-1 Env-driven cell-cell fusion, primary screen, HeLa-JRFL effector, CEM21 target cells, luciferase | AID 651610, 2012 | hit rate 1.1% among 360,000 | inhibition, % at 12.3 µM;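 active means mean replicate inhibition score of at least 50 and every replicate individually at or above 50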;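 further: 0% = plate neutral controls and 100% = maraviroc near 300 nM; one replicate is shown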
# MT1-MMP act inh – blockers of MT1-MMP proenzyme processing, primary screen, HT1080 RFP-PRO-GFP cells, GFP/RFP fluorescence. Matrix metalloproteinase-14 (Homo sapiens), P50281. GFP/RFP ratio fluorescence, overnight; percent of plate control window, DMSO zero. GFP/RFP ratio change, % at 20 µM. hit rate 0.061% among 360,000. AID 651647, 2012;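 active means GFP/RFP ratio change of at least 30% with cell ATP level not reduced by more than half and red fluorescence within 50% of control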; further: strong numbers were not always called active
#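 Material – HT1080 RFP-PRO-GFP cells · Control set – DMSO wells and RFP-L50D-GFP cells · Incubation – overnight cell settling, then overnight compound exposure, 37 °C, 5% CO2 · Compound dosing – single-point 20 µM compound, 1% DMSO · Read-out – GFP/RFP fluorescence ratio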
# PABP polyA inh – PABP poly(A) RNA binding inhibitors, primary screen, biochemical, fluorescence polarization, uHTS; Polyadenylate-binding protein 1 (Homo sapiens), P11940; hit rate 1% among 290,000; inhibition, % at 35 µM;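 active means 50% or more with normal probe brightness, or confirmed in later tests; about a fifth of its hits are not listed in these tables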;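 further: calls also rest on retests at 20 µM and on dose response follow-up; controls were probe without protein and protein plus probe with vehicle; some compounds called inactive have numbers as strong as hits; many hits fall short of the cut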
# CSC inhib – cancer stem cell viability inhibitors, primary screen, luminescence; cancer stem cell-like cells viability; hit rate 1.1% among 300,000; inhibition, % at 7.5 µM;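 active means mean at 75% or more and at least half the replicates too; tested in HMLE shEcad cells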;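 further: 0% = median of negative and 100% = median of positive control wells; the first replicate is given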
# MT1-MMP act inh RFP – further read-out of MT1-MMP act inh, marked with its call; RFP signal change, %; measured here: RFP expression control read;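 0 = vehicle wells; hits needed this value within 50% of zero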
# Starred values were filed as active, the others as inactive; i = inactive; . = not tested or not shown; & = joins results of further samples. These rows are one share of the data (hit frequency here may not be typical).
SMILES,Rce1 inhib,Yeast UUG start,eIF4H FP inh,Env fusion inh,MT1-MMP act inh,MT1-MMP act inh RFP,PABP polyA inh,CSC inhib
CCOC(=O)N1CCN(C(=O)CCC2CCCC2)CC1,i,.,-1,14,10,5,-1,7
O=C(COC(=O)c1cnccn1)c1ccc(Cl)c([N+](=O)[O-])c1,i,-18,-7,12,1,4,5,-9
C=CCn1cc(C(=O)NCCN(CC)CC)c(=O)c2cc(S(=O)(=O)N3CCCCCC3)ccc21,i,6,8,-4,-2,4,12,-13
CCOC(=O)COc1cc(N)c(Cl)cc1Cl,i,.,12,3,1,4,-10,-3
CCOC(=O)C1CCCN(C(=O)C(CCSC)NC(=O)COc2ccccc2)C1 (stereo not drawn),.,-12,.,-3,10,-6,.,.
CCCn1nc2cc(C(=O)NCC34CC5CC(CC(C5)C3)C4)ccc2c1OCC,i,-11,-4,-20,4,-7,9,0
NC(=O)C1CCCNC1 (stereo not drawn),i,-17&1,79*,-14,2,3,66*,0
CCN(c1ccccc1)S(=O)(=O)c1ccc(OC)c(NC(=O)CNCCc2ccccc2)c1,i,-7,11,30,-1,-16,-3,19
Cc1ccc(NC(=O)CC(C)S(=O)(=O)c2ccc3c(c2)NC(=O)CO3)c(Cl)c1 (stereo not drawn),i,-17,0,10,1,-4,7,-11
O=C(Cc1cccc2ccccc12)N/N=C/c1ccc(OC(=O)/C=C/c2ccco2)cc1,i,-8,1,.,0,-2,5,.
Cc1cccn2c(=O)c3cc(C(=O)NCCN4CCOCC4)c(=N)n(CCN4CCOCC4)c3nc12,i,-13,3,-1,3,2,8,.
CC(C)(C)C(=O)N1CCC[C@@]1(CO)C(=O)O,i,-17,-2,-19,-1,4,5,5
O=C(NC1CCCC1)C(c1cccnc1)N(C(=O)c1csnn1)C1CCCC1 (stereo not drawn),i,-16,-3,-19,-2,0,-4,7
Cc1ccc(Oc2ccccc2/C=N/O)cc1,i,2,-8,.,0,-2,-3,6
CC1CCCCN1C(=O)COC(=O)c1cc(-c2cccs2)nn1-c1ccccc1 (stereo not drawn),.,7,.,.,-6,-5,.,-14
COC(=O)[C@@H](Cc1c[nH]c2ccccc12)NC(=O)c1cc(=O)[nH]c2ccccc12,i,-12,-14,2,0,2,7,-3
CSCCC(NC(=O)c1cccc(C)c1)C(=O)NNC(=O)c1cccs1 (stereo not drawn),.,-23,.,.,5,0,.,-11
COc1ccc(C(=O)NNC2=C(C(=O)C(F)(F)F)CCC2)cc1,i,-25,22,21,4,2,0,10
CC(C)(C)NC(=O)Nc1ccc(Br)cc1,i,.,18,0,-1,-3,2,-4
CCOC(=O)C(=O)c1c(-c2ccc(C)cc2)nc2ccccn12,i,.,5,-6,2,1,8,3
CCSc1ccc2cc(OC)ccc2[n+]1CC,i,.,4,13,-2,-2,-12,-2
CCOC(=O)c1c(NC(=O)COC(=O)c2ccncc2)sc(C)c1C,i,.,11,-7,3,0,15,2
Cc1ccc(CC(=O)NCc2ccc(Cl)cc2)cc1,i,.,-14,-151,-6,-10,4,59
Cc1ccc(Nc2ccc([N+](=O)[O-])cn2)cc1Cl,i,-23,-1,-11,1,-2,0,13
CC1CCCC(NC(=S)NC(=O)c2cncc(Br)c2)C1C (stereo not drawn),i,.,-3,-3,2,2,8,-1

# As a working copy, part of the list above:
SMILES,Rce1 inhib,Yeast UUG start,eIF4H FP inh,Env fusion inh,MT1-MMP act inh,MT1-MMP act inh RFP,PABP polyA inh,CSC inhib
CCOC(=O)N1CCN(C(=O)CCC2CCCC2)CC1,i,.,-1,14,10,5,-1,7
O=C(COC(=O)c1cnccn1)c1ccc(Cl)c([N+](=O)[O-])c1,i,-18,-7,12,1,4,5,-9
C=CCn1cc(C(=O)NCCN(CC)CC)c(=O)c2cc(S(=O)(=O)N3CCCCCC3)ccc21,i,6,8,-4,-2,4,12,-13
CCOC(=O)COc1cc(N)c(Cl)cc1Cl,i,.,12,3,1,4,-10,-3
CCOC(=O)C1CCCN(C(=O)C(CCSC)NC(=O)COc2ccccc2)C1 (stereo not drawn),.,-12,.,-3,10,-6,.,.
CCCn1nc2cc(C(=O)NCC34CC5CC(CC(C5)C3)C4)ccc2c1OCC,i,-11,-4,-20,4,-7,9,0

# Carrying on:
SMILES,Rce1 inhib,Yeast UUG start,eIF4H FP inh,Env fusion inh,MT1-MMP act inh,MT1-MMP act inh RFP,PABP polyA inh,CSC inhib
CN1C(=O)N(CC(=O)Nc2ccc3c(c2)OCO3)C(=O)C12CCCCC2,.,-14,.,-7,-1,4,.,.
Cc1ccc(OCC(=O)N/N=C/c2cn(Cc3ccccc3)c3ccccc23)cc1,i,.,11,-8,-1,3,-7,7
COc1ccc(S(=O)(=O)Nc2ccccc2SC)cc1C,i,-2,5,-17,1,-1,-5,3
COc1ccc(NC2CCCN(C(=O)c3c(C)noc3C)C2)cc1 (stereo not drawn),i,-14,-5,8,0,1,12,-29
COc1ccc(S(=O)(=O)Nc2ccc(C(F)(F)F)cc2)cc1OC,i,-3,-15,-17,2,-3,-15,-6
N#Cc1c2n(c3c(=S)nc[nH]c13)CCCCC2,i,.,-1,.,0,-2,8,-3
O=C(CCC1CCCCC1)NCCN1C2=NC[C@@H](Cc3ccccc3)N2C[C@H]1Cc1ccc(O)cc1,i,-7,-4,-7,-6,-5,-3,1
CC1CCCCC12NC(=O)N(CC(=O)Nc1ccccc1-c1ccccc1)C2=O (stereo not drawn),i,.,7,11,-2,0,8,8
Cc1ccnc2nc(C(=O)Nc3nccs3)nn12,i,.,1,.,3,3,3,-7
COC(=O)C1=C(C)NC(C)=C(C(=O)OC)C1c1ccccc1OCc1c(C)no[n+]1[O-],.,10,7,-76,6,-1,-4,17
CCOC(=O)C(NC(C)=O)(N1CCc2ccccc2C1)C(F)(F)F (stereo not drawn),i,-8,-2,-16,0,1,6,.
CCN1CCN(CCNC(=O)C2CCCN(Cc3nc(-c4cccc(Cl)c4)oc3C)C2)CC1 (stereo not drawn),i,3,-4,17,7,3,23,5
Cc1ccc(S(=O)(=O)n2nc(C)cc2C)cc1,i,-23,-2,-17,1,-2,9,-9
O=C(C1CCC1)N1CCc2cc(S(=O)(=O)NCc3ccccn3)ccc21,i,-4,-5,.,-2,-5,-1,-3
COC(=O)c1sccc1NC(=O)CC1NCCNC1=O (stereo not drawn),i,.,5,-3,-4,1,1,-17
Oc1ccccc1-c1cc(-c2ccc(F)cc2)n[nH]1,i,-13,-5,-187,2,4,0,8
O=C(c1cnn2c(C(F)(F)F)cc(-c3cccs3)nc12)N1CCN(Cc2ccccc2)CC1,i,2,0,.,1,-4,-7,10
COc1ccc(NC(=O)c2oc3ccccc3c2C)cn1,i,-13,-4,-220,-8,-2,5,-1
COc1ccc(OCc2nnc(SCC(=O)Nc3ccc(C)cc3)o2)cc1,.,-13,5,-8,2,1,6,-5
O=c1c(C(c2ccc(Br)cc2)c2c(O)nc3n(c2=O)CCS3)c(O)nc2n1CCS2,i,.,4,6,-1,3,25,7
COc1ncc(-c2cccc3nccn23)c(OC)n1,.,-16,.,-22,3,5,.,.
Cc1ccc(Cl)cc1-c1cc(C(=O)Nc2ccc(F)cc2)[nH]n1,.,-14,.,-36,0,-10,.,.
O=C(CSc1ccc(Cl)cc1)Nc1ccccc1,.,-7,.,-16,-2,-1,.,.
CCCCCc1ccc(OCCCC[n+]2ccccc2)c(CCCCC)c1,i,.,-3,.,-26,-34,-9,2
COC(=O)c1ccc(CSC2=NC[C@@H]3[C@@H]4C(=O)N(C)C(=O)[C@@H]4[C@](C)(C(=O)OC)N23)cc1,.,-10,.,-2,1,1,.,.
SMILES,Rce1 inhib,Yeast UUG start,eIF4H FP inh,Env fusion inh,MT1-MMP act inh,MT1-MMP act inh RFP,PABP polyA inh,CSC inhib
CCCn1cc(S(=O)(=O)c2ccc(F)cc2)c(=O)c2cc(OCC)ccc21,i,-2,-8,12,-4,1,2,-14
CCOC(=O)[C@H]1[C@H]2COc3cc(OC)ccc3[C@@H]2N2C(=O)CN(CC3CCCO3)C(=O)[C@@]12C (stereo partly drawn),.,7,.,-20,5,-3,.,-9
CCN(C[C@H]1N[C@@](Cc2ccccc2)(C(=O)OC)[C@H]2C(=O)N(Cc3ccccc3)C(=O)[C@@H]12)C(=O)c1ccccc1,.,-27,.,-83,1,-5,.,0
COCc1cc(C)nc(SCC[N+](C)(C)CC(=O)c2ccc(Br)cc2)c1C#N,i,.,-7,-17,-4,-1,-6,-7
Cc1c(Cl)cccc1NC(=S)NCCC(c1ccccc1)c1ccccc1,i,-7,1,.,-1,-4,9,50
O=C(c1ccc([N+](=O)[O-])cc1)N1CCC(Cc2ccccc2)CC1,i,.,14,15,3,-5,13,-1
CC1CCN(C(=O)/C(=C\c2ccco2)NC(=O)c2ccccc2)CC1,i,.,4,0,-5,5,3,-9
CC(C)(C)N1CC(c2nc3ccccc3n2Cc2ccc(F)cc2)CC1=O (stereo not drawn),i,-17,-9,-126,0,-7,-6,0
O=c1oc2cc(OCc3ccc(F)cc3F)ccc2cc1-c1ccccn1,i,-18,-1,-68,-1,0,10,-6
Cc1cccc2nc(CSc3nnc(N)s3)cn12,i,.,2,-5,-4,7,7,-22
COc1ccc(-n2nnnc2SCC(=O)N2CCN(C(=O)c3ccco3)CC2)cc1OC,i,.,12,15,3,11,5,-11
O=[N+]([O-])c1cccc(S(=O)(=O)NCc2ccccn2)c1,i,-14,-3,-1,-5,1,11,-17
O=C(NC1CCCCCC1)C1CCN(S(=O)(=O)c2c(Cl)cccc2Cl)CC1,.,5,.,-7,3,-5,.,2
Cc1ccc(S(=O)(=O)c2c(C)cc(C)nc2N2CCOCC2)cc1,i,-29,8,10,-1,-1,4,-10
O=C(NCc1ccc(OC(F)(F)F)cc1)C1CC2Cn3c(nc4ccccc43)C2N1c1ccccc1 (stereo not drawn),i,-16,7,14,0,2,-3,-4

# Six compounds out of the list above, sorted by the value under Env fusion inh, falling:
smiles | Rce1 inhib | Yeast UUG start | Env fusion inh | MT1-MMP act inh | MT1-MMP act inh RFP
COc1ccc(-n2nnnc2SCC(=O)N2CCN(C(=O)c3ccco3)CC2)cc1OC | i | . | 15 | 3 | 11
O=C(NCc1ccc(OC(F)(F)F)cc1)C1CC2Cn3c(nc4ccccc43)C2N1c1ccccc1 (stereo not drawn) | i | -16 | 14 | 0 | 2
O=[N+]([O-])c1cccc(S(=O)(=O)NCc2ccccn2)c1 | i | -14 | -1 | -5 | 1
Cc1cccc2nc(CSc3nnc(N)s3)cn12 | i | . | -5 | -4 | 7
O=C(NC1CCCCCC1)C1CCN(S(=O)(=O)c2c(Cl)cccc2Cl)CC1 | . | 5 | -7 | 3 | -5
CCOC(=O)[C@H]1[C@H]2COc3cc(OC)ccc3[C@@H]2N2C(=O)CN(CC3CCCO3)C(=O)[C@@]12C (stereo partly drawn) | . | 7 | -20 | 5 | -3

# Assay outcomes from PubChem.
